Bioassay records deposited in PubChem by National Center for Advancing Translational Sciences (NCATS).
VACV mCherry inh = vaccinia inhibition (mCherry reporter); Vaccinia virus mCherry reporter infection, fluorescence; about a quarter of the inactives have no number; Potency, µM (series often up to 36.5 µM), for the others: top-dose activity change, negative = inhibition, hits mostly inhibitors; 310,000 compounds, 0.63% hits; AID 720579; active = well fitted inhibition curve with a large enough effect; inconclusive = small, poorly fitted or top-dose-only effect; inactive = no such curve, though single readings can be large or run the other way; tested in A549 cells; also: nearly all actives have a fitted effect of over 35% in size; inactives centre near -10
VACV Venus inh = vaccinia inhibition (Venus reporter). Vaccinia virus Venus reporter expression, fluorescence. Potency, µM (titrated, usually from 36.5 µM), without a hit: at the highest dose activity change, negative = inhibition, hits mostly inhibitors. 330,000 compounds, 0.46% hits; active means well fitted inhibition curve with a large enough effect; inconclusive means small, poorly fitted or top-dose-only effect; inactive means no such curve, though single readings can be large or run the other way; tested in A549 cells; also: nearly all actives have a fitted effect of over 30% in size; inactives centre near -10
An asterisk follows results filed as active; i = inactive; ? = inconclusive; . = no result given; & = joins results of further samples; [ ] = dose if it differs, or a comment. % is scaled to controls: 0 for no effect and ±100 for the full control effect; potency is read from the fitted curve at half-maximal effect. An unsorted share of the library; 0.82% or so of the library scored in one or more.

Molecule,VACV mCherry inh,VACV Venus inh
CSc1ccc(CNC(=O)c2ccc3c(c2)N(C)C(=O)C2CCCCN32)cc1 (stereo not drawn),-10%,4%
O=[N+]([O-])c1cccc2cnccc12,?,-9%
CC1(Oc2cccc(C#N)c2)CCN(Cc2ccccc2OC(F)F)C1 (stereo not drawn),i,-22%
COc1cccc(Nc2nc3ccccc3n3cnnc23)c1,-21%,-16%
Cc1ccc(-n2nnnc2CNC(=O)c2ccccc2S(C)(=O)=O)cc1C,-11%,-13%
COc1ccc(S(=O)(=O)Nc2cccc3c2O[C@H](CN(C)CC2CC2)[C@@H](C)CN([C@H](C)CO)C3=O)cc1,i,-14%
O=C(Nc1ccc2c(c1)CCC2)c1cccc(F)c1,-27%,-12%
S=c1[nH]nc(-c2ccccn2)n1/N=C/c1ccccc1,-10%,-11%
CC(C)NC(=O)OCc1c(COC(=O)NC(C)C)c([N+](=O)[O-])n2c1CCC2,36%[activator],16%
CN1CCN(C(=O)OC2c3nccnc3C(=O)N2c2ccc(Cl)cn2)CC1 (stereo not drawn),-19%&3%,-14%&-3%
CC(=O)CSc1nnc(-c2cnccn2)n1-c1ccccc1,-1%,-9%
CN1CCN(C(=O)c2cc3c(c(-c4cccc(C#CC(C)(C)O)c4)n2)[C@@H](CCO)N(S(=O)C(C)(C)C)C3)CC1 (stereo partly drawn),47%[activator],4%
O=C(NN1C(=O)c2ccccc2NC1c1ccc([N+](=O)[O-])o1)c1ccc([N+](=O)[O-])cc1 (stereo not drawn),-6%,-6%
COC(=O)[C@H](Cc1ccc(O)cc1)NCCCn1cnc(C(=O)Nc2ccc(C)c(C)c2)n1,-26%,-9%
N=c1n(CC(=O)c2ccc([N+](=O)[O-])cc2)c2ccccc2n1Cc1ccccc1Cl,-15%,-16%
CCSc1nnc(NC(=O)NC2CCCCC2)s1,-2%,8%
COc1ccccc1NC(=O)CSc1nncn2c1cc1sccc12,?,-30%
COc1ccc(-c2cc(C(F)(F)F)c(C#N)c(SCC(=O)Nc3cccc(C)c3)n2)cc1,2%,1%
Cc1ccc(C(OCCN(C)C)c2cccc(C(F)(F)F)c2)cc1 (stereo not drawn),-8%,-15%
Cc1nc2ccccn2c1P(=S)(N1CCCCC1)N1CCCCC1,-15%,-6%
CN(C)c1ccc(NC(=O)c2ccc([N+](=O)[O-])cc2Cl)cc1,-18%,-18%
COC(=O)CCCC(=O)N(C)CC1CCCN(CCc2ccccc2C)C1 (stereo not drawn),-1%,-6%
N[C@](CC1c2ccccc2Oc2ccccc21)(C(=O)O)[C@H]1C[C@@H]1C(=O)O,-3%,0%
CC1CC(C)(C)NC(=S)N1CCC(=O)N1CCN(c2ccccc2)CC1 (stereo not drawn),i,-9%
COc1ccc2c(c1)Cc1sc(NC(=O)c3ccccc3)nc1-2,-10%,-28%
COc1ccc(C2=NS(=O)(=O)N(C)C(C(=O)N(C)Cc3ccccc3)=C2)cc1OC,-9%&-9%,-6%&1%
COc1ccc(CNC(=O)c2cc(-c3ccc(OC)cc3)nc3n[nH]c(-c4cccc([N+](=O)[O-])c4)c23)cc1,-7%,-4%
COc1cccc(OCCNC(=O)Nc2cc(F)c(F)cc2Cl)c1,i,-13%
C[C@@H]1CC=C[C@H]2[C@H]1C(=O)N(Cc1ccccc1)[C@H]2c1ccc2ccccc2c1/C=C/c1ccccc1,-2%,-14%
CC1=CC(C)C2C(=O)N(CCCN(C)C)C(=O)C2C1 (stereo not drawn),.,-21%

Next entries
Molecule,VACV mCherry inh,VACV Venus inh
CC(=O)c1cc2c(cc1N(C(=O)Cn1nnc3ccccc31)C(C(=O)NCCC(C)C)c1cccnc1)OCO2 (stereo not drawn),-1%,-7%
c1coc(-c2nnc(-c3ccco3)nn2)c1,?,4%
CCN(CC)C(=O)C(=O)c1cccn1-c1cccc(-n2cccc2C(=O)C(=O)N(CC)CC)c1C#N,-14%,-12%
CCN(CC)CCn1c2c(c(SCC(=O)Nc3cccc(C(F)(F)F)c3)nc1=O)CCC2,-8%[7.34 µM],-6%[7.34 µM]
CCCOc1ccc(/C=N/NC(=O)CN(c2ccc(OCC)cc2)S(C)(=O)=O)cc1,-3%,-14%
NC(=O)N1CCC2(CC1)NC(=O)N(c1ccccc1)N2,-11%,-7%
CCSc1nnc(NC(=O)CCc2ccc(OC)cc2)s1,-7%,-16%
COc1ccc(C(=O)NNC(=O)CSc2nnc(C)n2C)cc1,i,0%
OCC1(Cc2ccccc2C(F)(F)F)CCN(Cc2ccc3c(c2)CCO3)CC1,-9%,-13%
Cc1ccn2cc(CCNC(=O)C3CCCCC3)nc2c1,-15%,8%
Nc1c(C(=O)Nc2ccccc2F)sc2nc(-c3cccnc3)ccc12,-24%,?
CCCN(C(=O)c1cccs1)c1nnc(-c2ccncc2)s1,-8%,-1%
CC1CN(S(=O)(=O)c2cccc(C(=O)N(CCc3ccccc3)Cc3ccccc3)c2)CC(C)O1 (stereo not drawn),-8%,-24%
CC1CCCN(CC(O)COc2ccc3c(c2)OCO3)C1 (stereo not drawn),-8%,-7%
O=C(Nc1ccc(F)c(Cl)c1)c1cc(C2CCCCN2C(=O)CCCc2ccccc2)on1 (stereo not drawn),-24%,-17%
Cc1ccc(C)c(C(=O)Nc2cc(C)nn2-c2nc(C)cc(C)n2)c1,-18%,-13%
COc1ccccc1NC(=O)c1c(NCc2ccc(C)o2)sc2c1CCC(C)C2 (stereo not drawn),0%,-13%
Cn1c(SCC(=O)Nc2ccc(F)cc2)nc2c(c1=O)SCC2,-18%,-11%
CCn1c(=O)cc(OCC(=O)NCCCN2CCCC2=O)c2ccccc21,-1%,-11%
Cc1ccnc(Nc2nc3ccccc3o2)n1,i,1%
C[C@H]1CN([C@@H](C)CO)C(=O)CCCn2nncc2CO[C@H]1CN(C)S(=O)(=O)c1ccc(Oc2ccccc2)cc1,-26%,-14%
CCOc1ccccc1NC(=O)N1CCN(Cc2cc(=O)n3nc(-c4ccc(C)cc4)sc3n2)CC1,-7%,-8%
CN(CC(=O)N1CCCC1)S(=O)(=O)c1ccc2ccccc2c1,i,-10%
COCCN(C(=O)Cc1ccc(S(=O)(=O)N2CCOCC2)s1)c1c(N)n(CC(C)C)c(=O)[nH]c1=O,-18%,-5%
Cc1cccc(NCCC(=O)c2ccc(Br)cc2)c1,-11%,-23%
CN(Cc1ccon1)C(=O)CC1C(=O)NCCN1Cc1ccc(F)c(F)c1 (stereo not drawn),-9%,-12%
CCOC(=O)c1cc(CC)sc1NC(=O)COC(=O)c1ccccn1,-2%,-4%
Brc1ccc(-c2ccc(CNCCSc3nnnn3-c3ccccc3)o2)cc1,-3%,-4%
COCCCNC(=O)C[C@@H]1C[C@@]2(C(=O)OC)CC(C)(C)CC=C2N(Cc2ccccc2)C1=O,-23%,0%
CC(=O)C1=CCC(c2ccc(C)o2)N(S(=O)(=O)c2ccc(C)cc2)C1 (stereo not drawn),i,7%

2 entries drawn at random from the list so far, as already listed:
Molecule,VACV mCherry inh,VACV Venus inh
CC(=O)c1cc2c(cc1N(C(=O)Cn1nnc3ccccc31)C(C(=O)NCCC(C)C)c1cccnc1)OCO2 (stereo not drawn),-1%,-7%
C[C@H]1CN([C@@H](C)CO)C(=O)CCCn2nncc2CO[C@H]1CN(C)S(=O)(=O)c1ccc(Oc2ccccc2)cc1,-26%,-14%

Next section:
Molecule,VACV mCherry inh,VACV Venus inh
Cc1nc2ncnn2c(C)c1Cc1ccc(Cl)cc1F,-4%,-5%
CN(C)S(=O)(=O)N1CCC(Oc2ccc(C(=O)NC3CCCCC3)cc2)CC1,-21%,-14%
Nn1c(SCc2cc([N+](=O)[O-])cc3c2OCOC3)nnc1-c1cccnc1,-4%,-5%
CCOC(=O)c1c(C)oc2nc(C)nc(NCC3CCN(Cc4cccc(Cl)c4)CC3)c12,i,-7%
O=C(CSc1nnc(CNC(=O)c2cccs2)o1)Nc1ccccc1C(F)(F)F,-1%,-7%
CC(=O)c1cccc(NC(=O)CSCc2ccc(Br)cc2)c1,i,-6%
CC(OC(=O)C1CSC2(c3ccc(F)cc3)CCC(=O)N12)C(=O)NC(N)=O (stereo not drawn),-4%,-5%
Cc1ccc(N(CC(=O)Nc2ccc3c(c2)OCCO3)S(=O)(=O)c2c(C)n[nH]c2C)cc1,-16%,-4%
CCc1c(C(=O)N/N=C/c2cn[nH]c2-c2ccc(F)cc2)csc1C,i,3%
CC(=O)c1ccc(S(=O)(=O)N(CC(=O)NC2CC2)Cc2ccc(F)cc2)cc1,?,-16%
COc1ccc(-c2cc(C)nc3c(-c4ccc(OC)c(OC)c4)c(C)nn23)cc1,?,?
O=C1CCC(C(=O)Nc2cc(C(F)(F)F)ccc2-n2cncn2)=NN1,-13%,-10%
CC(/C=C/c1ccccc1)=N/NC(=O)c1nc2nc(C)cc(C)n2n1,?,-9%
O=C(Nc1ccc(Cc2ccncc2)cc1)C1CC1,-1%,-5%
COc1cccc(CN2CCN(C(=O)c3cc(-c4cccnc4)nc4ccc(C)cc34)CC2)c1,?,-25%
CC1=C(C(=O)Nc2ccccc2F)C(c2ccsc2)C2=C(CC(c3ccccc3)CC2=O)N1 (stereo not drawn),.,-13%
O=c1[nH]c(=S)[nH]c2c1C(c1ccc(Br)cc1)c1c([nH]c(=S)[nH]c1=O)O2,i,-5%
N#CCSc1nnc(SCC#N)s1,-30%,?
CCN1C(=O)N[C@@H](c2ccc(Br)cc2)C(C(=O)OC)=C1C,-4%,-9%
COc1nonc1NC(=O)CSc1nc2ccccc2[nH]1,-16%,-14%
Nc1c(N)c2ccccc2oc1=O,i,-17%
CCn1c(SCC(=O)Nc2sc3c(c2C(N)=O)CCC(C)C3)nnc1-c1ccco1 (stereo not drawn),.,-10%
CCC(C)(C#CCN1CCCCC1)OC(C)=O (stereo not drawn),i,-5%
COc1ccc(/C=C/c2ccc3ccccc3n2)cc1OC,20%,-20%
CC1(C)NC(=O)N(CC(=O)OCC(=O)c2ccc(F)cc2)C1=O,-17%,-4%
CSCCC(NC(=O)OC(C)(C)C)C(=O)NC(CC(C)C)C(N)=O (stereo not drawn),.,-33%
CCN(CC)c1ccc(N=Cc2ccccc2[N+](=O)[O-])cc1,?,?
CCCC12CN3CC(C)(CN(C1)C3c1ccc(OC)cc1)C2=O (stereo not drawn),.,15%
CN1CC(=O)N(CC(=O)NCCc2ccc(F)cc2)c2ccccc2C1=O,-6%,1%
COc1cccc(-c2nc3n(n2)C(c2ccc4c(c2)OCO4)C(C(N)=O)=C(C)N3)c1 (stereo not drawn),-3%,-22%

Among those listed so far, these contain a tert-butyl group:
Molecule,VACV mCherry inh,VACV Venus inh
CN1CCN(C(=O)c2cc3c(c(-c4cccc(C#CC(C)(C)O)c4)n2)[C@@H](CCO)N(S(=O)C(C)(C)C)C3)CC1 (stereo partly drawn),47%[activator],4%
CSCCC(NC(=O)OC(C)(C)C)C(=O)NC(CC(C)C)C(N)=O (stereo not drawn),.,-33%

Carrying on.
Molecule,VACV mCherry inh,VACV Venus inh
Cc1c(C(=O)NCc2ccccc2)cnn1-c1ccccc1,-17%,-6%
Oc1ccc(Br)cc1-c1nc2cnccn2c1NC1CCCCC1,-9%,-26%
CCOC1=C2[C@@H](CN(S(=O)(=O)c3ccccc3C)[C@H]2c2ccc(Cl)cc2)[C@H]2C(=O)NC(=O)[C@H]2C1,5%,10%
NNC(=O)c1cccnc1Oc1ccccc1,-9%,-1%
COc1ccc(OCC(=O)Nc2ccc(O)c(-c3nc4ccccc4s3)c2)cc1,-2%,-15%
Cc1ccc(S(=O)(=O)NCCCCCC(=O)Nc2nccs2)cc1,-27%[1.46 µM],-22%
CCc1cc(CNC(=O)c2ccc(OC)c(OC3CCN(C(C)C)CC3)c2)on1,-22%,-4%
O=C(c1ccc(Cl)cc1)C1CCN(C(=O)C2CC2)CC1,-14%,-15%
Cc1ccc(/C=N/N2CCN(c3ccc(Cl)cc3)CC2)o1,.,-29%
CC(C)C(OC(=O)CN1C(=O)c2ccccc2C1=O)C(=O)NC1CCCC1 (stereo not drawn),-3%,5%
Cc1cc(=O)n(Cc2ccccc2Cl)c2c1c(C)nn2-c1ccccc1,-12%,1%
Cc1ccccc1-n1c(SCc2c(C)noc2C)nnc1-c1c[nH]c2ccccc12,.,?
COc1ccccc1C(=O)NCCc1csc(-c2ccc(C(F)(F)F)cc2)n1,-8%,-7%
COC1=C(Nc2ccccc2OC)C(=O)c2ccccc2C1=O,i,-5%
COCc1ccc(C(=O)N2CCc3c([nH]c4ccccc34)C2c2ccccn2)s1 (stereo not drawn),-24%,-24%
COc1cccc(NC(=O)NNC(=O)COc2ccc3ccccc3c2)c1,i,-28%
COC(=O)Cn1c(SCCOc2ccccc2OC)nc2ccccc21,-11%,-6%
COc1ccc(-c2cc(C(=O)N3CCOCC3)c3cc(C)ccc3n2)cc1,-16%,-11%
C[C@H]1CC[C@]2(O[C@@H](CCO)C[C@H](O)[C@H]2O)O1,-12%,-3%
COc1cccc(N/C=C/C(=O)c2ccc(Br)cc2)c1,-24%,-19%
COc1cccc(-n2c(SCC(=O)NC3CC3)nc3ccccc3c2=O)c1,i,-5%
Cc1cc[n+](-c2[nH]c(=O)sc2/C=N/NC([S-])=Nc2ccccc2)cc1,-7%,-8%
COC(=O)c1cc2sc(Cl)cc2n1Cc1nc(-c2ccccc2)oc1C,-22%,-9%
